HIV Env fusion: inhibitors of HIV-1 Env-driven cell-cell fusion, primary screen, HeLa-JRFL effector, CEM21 target cells, luciferase. inhibition, % at 12.3 µM. hit rate 1.1% among 360,000. AID 651610, 2012;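 active means mean replicate inhibition score of at least 50 and every replicate individually at or above 50; inconclusive means only one of the two criteria met; inactive means mean below 50 and not all replicates reaching 50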;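 further: 0% = plate neutral controls and 100% = maraviroc near 300 nM; one replicate is shown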
MT1-MMP act inh: blockers of MT1-MMP proenzyme processing, primary screen, HT1080 RFP-PRO-GFP cells, GFP/RFP fluorescence; hit rate 0.061% among 360,000; Matrix metalloproteinase-14 (Homo sapiens), P50281; AID 651647, 2012; GFP/RFP ratio change, % at 20 µM; GFP/RFP ratio fluorescence, overnight; percent of plate control window, DMSO zero;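 active means GFP/RFP ratio change of at least 30% with cell ATP level not reduced by more than half and red fluorescence within 50% of control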; further: strong numbers were not always called active
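Compound: 20 µM single dose, 1% DMSO / System: HT1080 RFP-PRO-GFP cells / Controls: DMSO and RFP-L50D-GFP cell wells / Read-out basis: GFP/RFP fluorescence ratio / Schedule: overnight compound exposure at 37 °C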
MT1-MMP act inh RFP: further read-out of MT1-MMP act inh, marked with its call; RFP signal change, %; measured here: RFP expression control read;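 0 = vehicle wells; hits needed this value within 50% of zero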
The depositor's hits bear a star; ? = inconclusive.

Value order: HIV Env fusion, MT1-MMP act inh, MT1-MMP act inh RFP
COc1ccc(CCN2C(=O)CSCC2(C)C(=O)Nc2ccc3c(c2)OCCO3)cc1OC (stereo not drawn)
  -55, 2, 2
O=C1NC[C@H](CCCCN2C[C@H](Cc3ccc(O)cc3)N(CCc3ccc(O)cc3)C(=O)C2=O)N(CCc2ccccc2)C1=O
  34, -1, 4
Cc1ccc(S(=O)(=O)/C=C2\OCc3ccccc32)cc1
  2, 1, 0
CCOC(=O)[C@]12CCCC=C1N(Cc1ccco1)C(=O)[C@H](CC(=O)NCc1ccccc1)C2
  11, 1, 3
O=C1c2ccccc2C(c2nnnn2-c2ccc3c(c2)OCCO3)N1Cc1cccnc1 (stereo not drawn)
  -11, 0, 5
COc1ccc(CN2C(=O)c3ccccc3C2c2nnnn2-c2ccc3c(c2)OCCO3)cc1OC (stereo not drawn)
  -32, -1, -6
N#CC12C(=O)NC(=O)C1(C#N)C21CCCC1 (stereo not drawn)
  21, 1, -1
CCCn1c(N)c(C(=O)CSc2ncnc3sccc23)c(=O)n(C)c1=O
  -5, -14, -10
O=C(C(=O)N1CCC(Cc2ccccc2)CC1)c1cccc(Br)c1
  52, -4, -5
NC1=C(Br)C(=O)c2ncccc2C1=O
  ?, -12, -21
COc1ccc(N2c3ccccc3CN(Cc3ccccc3)[C@@H](C)[C@H]2Cc2ccc(-c3ccccc3)cc2)cc1
  -15, 5, -2
OC(CNc1ccnc2cc(Cl)ccc12)CNC1CCCCC1 (stereo not drawn)
  2, 8, 3
COc1ccc(C(=O)c2[nH]c(N)c(C(=O)NCCc3c[nH]c4ccccc34)c2-c2ccccc2Br)cc1
  -30, -1, -13
CN(C)CCN(Cc1ccccc1)C(c1cc2ccccc2o1)c1nnnn1C(C)(C)C (stereo not drawn)
  -93, 4, 2
Cc1cccc(C)c1NC(=O)C1(C)CSCC(=O)N1CCc1ccccc1 (stereo not drawn)
  -12, 6, 5

Next section.
Value order: HIV Env fusion, MT1-MMP act inh, MT1-MMP act inh RFP
CC(C)[C@@H]1Cc2[nH]n(C)c(=O)c2[C@H](c2ccc(Cl)cc2)O1
  27, 11, 6
COC(=O)C1Cc2c([nH]c3ccccc23)C2CCC(=O)N12 (stereo not drawn)
  23, -1, 3
CN(C)c1ccc(C=NNc2ccccn2)c(Cl)c1
  -91, 0, -3
O=[N+]([O-])c1ccc(Nc2cccc3c2[nH]c2c(-c4ccccc4)nccc23)c([N+](=O)[O-])c1
  20, 7, 1
CCC(CC)C(C(=O)NCc1ccccc1)N(C)Cc1ccc(Cl)c(Cl)c1 (stereo not drawn)
  26, -21, -23
CCCNC(=O)Cn1c(=O)/c(=C/c2ccc(-c3ccc([N+](=O)[O-])cc3)o2)s/c1=C\C(=O)C(C)(C)C
  -14, -42, 12
COC(=O)C1(C(=O)OC)C[C@H](/C=C/c2ccccc2)N(Cc2ccccc2OC)[C@@H]1c1cccc(Br)c1
  8, -4, -3
COc1cc(C)c2c(c1OC)C(=O)CC2
  9, 0, 6
CCCCCCCCN1C(=O)[C@H](CC(=O)NCc2cccc3ccccc23)C[C@@]2(C(=O)OCC)CCC=C12
  13, -9, -10
O=C1NC[C@H](Cc2ccc(O)cc2)N(C[C@@H]2CCCN2C[C@H](Cc2ccccc2)N2C[C@H](Cc3ccccc3)N(CC3CCCCC3)C(=O)C2=O)C1=O
  3, -5, 2
O=C1NC[C@H](CCCCN2C[C@@H](Cc3ccccc3)N(CC3CCCCC3)C(=O)C2=O)N(CCC2CCCCC2)C1=O
  9, 6, -1
Cc1cccc(C)c1NC(=O)C(c1ccccc1)N1CCN(C)CC1 (stereo not drawn)
  6, -2, 5
COC(=O)[C@@]12C[C@@H](CC(=O)N3CCOCC3)C(=O)N(CCc3ccc(OC)c(OC)c3)C1=CCC(C)(C)C2
  -4, 3, 0
C=CCn1nc(C(=O)Nc2ccc(OC)cc2)cc1-c1sc(NC(=O)c2ccccc2)nc1C
  20, -4, -13
Cc1cccc(C(=O)N2CCC(=O)N([C@H](COCc3ccc(Cl)cc3)Cc3ccccc3)CC2)c1
  1, 2, -8

17 entries out of the list, sorted by molecular weight, largest number first:
Value order: HIV Env fusion, MT1-MMP act inh, MT1-MMP act inh RFP
O=C1NC[C@H](CCCCN2C[C@@H](Cc3ccccc3)N(CC3CCCCC3)C(=O)C2=O)N(CCC2CCCCC2)C1=O
  9, 6, -1
COC(=O)C1(C(=O)OC)C[C@H](/C=C/c2ccccc2)N(Cc2ccccc2OC)[C@@H]1c1cccc(Br)c1
  8, -4, -3
COc1ccc(N2c3ccccc3CN(Cc3ccccc3)[C@@H](C)[C@H]2Cc2ccc(-c3ccccc3)cc2)cc1
  -15, 5, -2
CCCCCCCCN1C(=O)[C@H](CC(=O)NCc2cccc3ccccc23)C[C@@]2(C(=O)OCC)CCC=C12
  13, -9, -10
CCCNC(=O)Cn1c(=O)/c(=C/c2ccc(-c3ccc([N+](=O)[O-])cc3)o2)s/c1=C\C(=O)C(C)(C)C
  -14, -42, 12
Cc1cccc(C(=O)N2CCC(=O)N([C@H](COCc3ccc(Cl)cc3)Cc3ccccc3)CC2)c1
  1, 2, -8
C=CCn1nc(C(=O)Nc2ccc(OC)cc2)cc1-c1sc(NC(=O)c2ccccc2)nc1C
  20, -4, -13
COc1ccc(CCN2C(=O)CSCC2(C)C(=O)Nc2ccc3c(c2)OCCO3)cc1OC (stereo not drawn)
  -55, 2, 2
CCOC(=O)[C@]12CCCC=C1N(Cc1ccco1)C(=O)[C@H](CC(=O)NCc1ccccc1)C2
  11, 1, 3
O=[N+]([O-])c1ccc(Nc2cccc3c2[nH]c2c(-c4ccccc4)nccc23)c([N+](=O)[O-])c1
  20, 7, 1
CCC(CC)C(C(=O)NCc1ccccc1)N(C)Cc1ccc(Cl)c(Cl)c1 (stereo not drawn)
  26, -21, -23
CCCn1c(N)c(C(=O)CSc2ncnc3sccc23)c(=O)n(C)c1=O
  -5, -14, -10
O=C(C(=O)N1CCC(Cc2ccccc2)CC1)c1cccc(Br)c1
  52, -4, -5
CC(C)[C@@H]1Cc2[nH]n(C)c(=O)c2[C@H](c2ccc(Cl)cc2)O1
  27, 11, 6
Cc1ccc(S(=O)(=O)/C=C2\OCc3ccccc32)cc1
  2, 1, 0
COC(=O)C1Cc2c([nH]c3ccccc23)C2CCC(=O)N12 (stereo not drawn)
  23, -1, 3
CN(C)c1ccc(C=NNc2ccccn2)c(Cl)c1
  -91, 0, -3

New compounds follow:
Value order: HIV Env fusion, MT1-MMP act inh, MT1-MMP act inh RFP
CC(C)C[C@@H](CN1CCC[C@H]1CN1C(=O)C(=O)NC[C@@H]1Cc1ccc(O)cc1)N1C[C@H](Cc2ccccc2)N(CC2CCCCCC2)C(=O)C1=O
  -128, -4, -3
COC(=O)Cn1c(C(=O)N(C)C)cc2c1C[C@H]1CN(C(=O)c3ccccc3)[C@@](Cc3ccc(F)cc3)(C(=O)OC)[C@@H]21
  -29, -3, -1
CC1(c2nnnn2Cc2ccccc2)CCC(=O)N1Cc1cccs1 (stereo not drawn)
  -23, 4, 7
COc1ccc(/C=C(/NC(=O)c2ccc(Br)cc2)C(=O)Nc2cccc(C(=O)O)c2)cc1
  23, -2, 3
Cc1ccc(S(=O)(=O)N2CCC(=O)N([C@H](COCc3ccc(Cl)c(Cl)c3)Cc3ccccc3)CC2)cc1
  -5, -3, -12
COC(=O)[C@]12CCCCC=C1N(Cc1ccccc1)C(=O)[C@H](CC(=O)NCCc1ccccc1OC)C2
  -27, 0, -3
COc1ccc(-c2oc3c(c2C#CCCCCO)C(OCCO)CC3)cc1 (stereo not drawn)
  -4, 4, 1
CCOC(=O)c1cc(-c2sc(NC(=O)c3ccccc3)nc2C)n(Cc2ccccc2)n1
  -6, -14, -26
O=C(NC1CCCCC1)C(CCc1ccccc1)n1c(=O)c(-c2ccccc2)nc2ccccc21 (stereo not drawn)
  -1, -13, -16
COc1ccc(C(=O)C(=O)N2CCN(c3ccc(C)cc3)CC2)cc1OC
  -9, -2, -8
CCCCCNC(=O)C(C1CC1)n1c(=O)c(-c2ccccc2)nc2ccccc21 (stereo not drawn)
  -13, 1, -4
COc1cc(N(C)C)ccc1C=c1c2ccccc2n2c1cc(-c1ccccc1)[n+]2C
  5, 65*, 49*
CNc1ncnc2c1ncn2-c1ccccc1
  0, 3, 5
S=C1CC2CCCC(C2)N1 (stereo not drawn)
  -3, 4, 2
COc1ccc2c(c1)c[n+](C)c1c3cc(OC)c(OC)cc3ccc21
  -167, 3, -9

(continued)
Value order: HIV Env fusion, MT1-MMP act inh, MT1-MMP act inh RFP
CCS(=O)(=O)C1C(=O)N(C)C(S(=O)(=O)CC)C(=O)N1C (stereo not drawn)
  4, 0, -1
CCCCn1nnnc1C1(C)CCC(=O)N1CC1CCCCC1 (stereo not drawn)
  -13, 3, -1
CCOC(=O)C1=CCC(c2cc3ccccc3[nH]2)NC1 (stereo not drawn)
  -206, -1, 2
CCCNC(=O)C1(C)CCCN(Cc2cccc(Oc3ccccc3)c2)C1 (stereo not drawn)
  29, -3, 0
COC(=O)c1cc([N+](=O)[O-])c(C)c(C)n1
  2, -3, 3
O=C(c1cccs1)N1CCN(S(=O)(=O)c2cccc(Cl)c2Cl)CC1
  -1, -4, -4
O=C(C(=O)N(C1CCCCC1)C1CCCCC1)c1ccccc1
  1, -3, -8
CCCCc1c(-c2ccccc2OC)ncn1Cc1cccc(-c2ccccc2)c1
  15, 19, -25
O=C(NCc1ccccc1)C(c1ccccc1F)n1c(=O)c(-c2ccco2)nc2ccccc21 (stereo not drawn)
  11, -10, 5
O=C(OCc1ccccc1)N1CCN(C(c2ccnc3ccccc23)c2nnnn2-c2ccc3c(c2)OCCO3)CC1 (stereo not drawn)
  2, -4, -14
CC1CN(Cc2ccco2)C(=S)N(c2ccccc2)C1=O (stereo not drawn)
  -2, -7, -6
O=S(=O)(SC1=NCCN1)c1ccccc1
  2, 2, 4
Nc1[nH]c(C(=O)c2ccccc2)c(-c2ccc(Br)cc2)c1C(=O)c1ccc(Br)cc1
  10, -3, 0
CC1(C(=O)NS(=O)(=O)c2cccc(Cl)c2)CCN1C(=O)C1(c2ccc(Cl)cc2)CCC1 (stereo not drawn)
  -41, 4, 0
COc1cc(C(=O)C(=O)N2CCN(c3ccccc3)CC2)cc(OC)c1OC
  -51, 2, -9

Further records follow.
Value order: HIV Env fusion, MT1-MMP act inh, MT1-MMP act inh RFP
COc1ccc(-c2ccc(CN3C(CC(C)C)C(=O)N(Cc4cn(Cc5ccco5)nn4)CCS3(=O)=O)cc2)cc1 (stereo not drawn)
  -21, -9, -7
Cc1ccc(OCCC(=O)Nc2ccc3c(c2)OCCCO3)cc1
  -14, 2, 2
COc1ccccc1-c1cccc(-c2nc(C(=O)Nc3nccs3)cc3c2[C@@H](CCO)N(C(=O)CC2CC2)C3)c1
  5, 2, -4
CC(C)C[C@@H](CN1CCCC1CN1C(=S)NC[C@@H]1Cc1ccccc1)N1C[C@H](Cc2ccc(O)cc2)N(CCc2ccccc2)C1=S (stereo partly drawn)
  19, -1, -11
CCc1nc2c(OCCC3CCCCC3)cccn2c1N(C)C(=O)CC(C)C
  6, -14, -14
CC1CN(Cc2ccccc2)C(=S)NC1=O (stereo not drawn)
  6, 3, 2
CCCCCCCCN1C(=O)[C@H](CC(=O)NCCCOCCCC)C[C@@]2(C(=O)OC)CC(C)(C)CC=C12
  13, -3, -6
CCCCc1c(-c2cccc(Cl)c2)ncn1CCc1ccccc1OC
  -7, -8, -25
CN(C)CCNC(=O)c1cccc2nc3c(ccc4ccccc43)nc12
  -31, 5, 2
O=C(c1ccc(C(F)(F)F)cc1)N1CCC(=O)N([C@H](COCc2ccc(Cl)cc2)Cc2ccccc2)CC1
  4, -7, -5
O=[N+]([O-])c1cccc(C=NNc2ccc3ccccc3n2)c1O
  -40, 17, -10
Nc1sc(-c2ccccc2)cc1C(=O)N1CCNCC1
  -4, 4, 5
CC(C)CC(NC(=O)OCc1ccccc1)C(=O)NC(Cc1ccccc1)C(=O)CCl (stereo not drawn)
  12, -1, 1
Cc1ccc(S(=O)(=O)N2CC(CO)=CCC2c2ccccc2)cc1 (stereo not drawn)
  3, 1, 2
Cc1cn(C2CC(O)C(O)C(CO)O2)c(=O)[nH]c1=O (stereo not drawn)
  -8, 2, 7

Record cards, as listed above. Screens in order: HIV Env fusion | MT1-MMP act inh | MT1-MMP act inh RFP
CCc1nc2c(OCCC3CCCCC3)cccn2c1N(C)C(=O)CC(C)C across the screens: 6 | -14 | -14
O=[N+]([O-])c1cccc(C=NNc2ccc3ccccc3n2)c1O across the screens: -40 | 17 | -10

Bioassay records deposited in PubChem BioAssay by several laboratories.

Some of the compounds tested; count on the stated rates, not on these rows.
